Bioassay records (PubChem)
BRCA1 expr up = qHTS Assay to Identify Small Molecule Activators of BRCA1 Expression; MCF7-BRCA1-FFLuc reporter, luminescence, 48 h; response scale: scaled: vehicle 0%, 10 µM genistein 100%; Potency, µM (highest dose often 46.1 µM), without a hit: at the top dose activation, most hits filed as activators; actives 1.1% (n = 380,000); AID 624202, 2012; also: nearly all actives have a fitted effect of over 80% in size; some results filed as inactive show a strong effect at the top dose
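Using MCF7 cells harboring a BRCA1 firefly luciferase reporter, plated 2 h before compound pinning, the screen measured luminescence after 48 h incubation. Responses were normalized to DMSO and 10 microM genistein, then fitted for concentration-effect.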
CXXC DNA block = qHTS Fluorescence Polarization Assay for Inhibitors of MLL CXXC domain - DNA interaction; Histone-lysine N-methyltransferase 2A (Homo sapiens), Q03164; actives 0.037% (n = 290,000); Potency, µM (top dose mostly 115 µM), for inactives: at the top dose activity change, negative = inhibition, most hits filed as inhibitors; MLL-CXXC / FITC-HOXA9 DNA fluorescence polarization; active = well fitted inhibition curve with a large enough effect in the polarisation, with a control signal flat, not every such curve was filed as active; inconclusive = small, poorly fitted or top-dose-only effect, or effect the other way, or a change in a side signal; inactive = no such curve, though single readings can be large or run the other way; the % refers to the polarisation
Target sequence (Q03164 whole entry, looked up, the tested form may be a part): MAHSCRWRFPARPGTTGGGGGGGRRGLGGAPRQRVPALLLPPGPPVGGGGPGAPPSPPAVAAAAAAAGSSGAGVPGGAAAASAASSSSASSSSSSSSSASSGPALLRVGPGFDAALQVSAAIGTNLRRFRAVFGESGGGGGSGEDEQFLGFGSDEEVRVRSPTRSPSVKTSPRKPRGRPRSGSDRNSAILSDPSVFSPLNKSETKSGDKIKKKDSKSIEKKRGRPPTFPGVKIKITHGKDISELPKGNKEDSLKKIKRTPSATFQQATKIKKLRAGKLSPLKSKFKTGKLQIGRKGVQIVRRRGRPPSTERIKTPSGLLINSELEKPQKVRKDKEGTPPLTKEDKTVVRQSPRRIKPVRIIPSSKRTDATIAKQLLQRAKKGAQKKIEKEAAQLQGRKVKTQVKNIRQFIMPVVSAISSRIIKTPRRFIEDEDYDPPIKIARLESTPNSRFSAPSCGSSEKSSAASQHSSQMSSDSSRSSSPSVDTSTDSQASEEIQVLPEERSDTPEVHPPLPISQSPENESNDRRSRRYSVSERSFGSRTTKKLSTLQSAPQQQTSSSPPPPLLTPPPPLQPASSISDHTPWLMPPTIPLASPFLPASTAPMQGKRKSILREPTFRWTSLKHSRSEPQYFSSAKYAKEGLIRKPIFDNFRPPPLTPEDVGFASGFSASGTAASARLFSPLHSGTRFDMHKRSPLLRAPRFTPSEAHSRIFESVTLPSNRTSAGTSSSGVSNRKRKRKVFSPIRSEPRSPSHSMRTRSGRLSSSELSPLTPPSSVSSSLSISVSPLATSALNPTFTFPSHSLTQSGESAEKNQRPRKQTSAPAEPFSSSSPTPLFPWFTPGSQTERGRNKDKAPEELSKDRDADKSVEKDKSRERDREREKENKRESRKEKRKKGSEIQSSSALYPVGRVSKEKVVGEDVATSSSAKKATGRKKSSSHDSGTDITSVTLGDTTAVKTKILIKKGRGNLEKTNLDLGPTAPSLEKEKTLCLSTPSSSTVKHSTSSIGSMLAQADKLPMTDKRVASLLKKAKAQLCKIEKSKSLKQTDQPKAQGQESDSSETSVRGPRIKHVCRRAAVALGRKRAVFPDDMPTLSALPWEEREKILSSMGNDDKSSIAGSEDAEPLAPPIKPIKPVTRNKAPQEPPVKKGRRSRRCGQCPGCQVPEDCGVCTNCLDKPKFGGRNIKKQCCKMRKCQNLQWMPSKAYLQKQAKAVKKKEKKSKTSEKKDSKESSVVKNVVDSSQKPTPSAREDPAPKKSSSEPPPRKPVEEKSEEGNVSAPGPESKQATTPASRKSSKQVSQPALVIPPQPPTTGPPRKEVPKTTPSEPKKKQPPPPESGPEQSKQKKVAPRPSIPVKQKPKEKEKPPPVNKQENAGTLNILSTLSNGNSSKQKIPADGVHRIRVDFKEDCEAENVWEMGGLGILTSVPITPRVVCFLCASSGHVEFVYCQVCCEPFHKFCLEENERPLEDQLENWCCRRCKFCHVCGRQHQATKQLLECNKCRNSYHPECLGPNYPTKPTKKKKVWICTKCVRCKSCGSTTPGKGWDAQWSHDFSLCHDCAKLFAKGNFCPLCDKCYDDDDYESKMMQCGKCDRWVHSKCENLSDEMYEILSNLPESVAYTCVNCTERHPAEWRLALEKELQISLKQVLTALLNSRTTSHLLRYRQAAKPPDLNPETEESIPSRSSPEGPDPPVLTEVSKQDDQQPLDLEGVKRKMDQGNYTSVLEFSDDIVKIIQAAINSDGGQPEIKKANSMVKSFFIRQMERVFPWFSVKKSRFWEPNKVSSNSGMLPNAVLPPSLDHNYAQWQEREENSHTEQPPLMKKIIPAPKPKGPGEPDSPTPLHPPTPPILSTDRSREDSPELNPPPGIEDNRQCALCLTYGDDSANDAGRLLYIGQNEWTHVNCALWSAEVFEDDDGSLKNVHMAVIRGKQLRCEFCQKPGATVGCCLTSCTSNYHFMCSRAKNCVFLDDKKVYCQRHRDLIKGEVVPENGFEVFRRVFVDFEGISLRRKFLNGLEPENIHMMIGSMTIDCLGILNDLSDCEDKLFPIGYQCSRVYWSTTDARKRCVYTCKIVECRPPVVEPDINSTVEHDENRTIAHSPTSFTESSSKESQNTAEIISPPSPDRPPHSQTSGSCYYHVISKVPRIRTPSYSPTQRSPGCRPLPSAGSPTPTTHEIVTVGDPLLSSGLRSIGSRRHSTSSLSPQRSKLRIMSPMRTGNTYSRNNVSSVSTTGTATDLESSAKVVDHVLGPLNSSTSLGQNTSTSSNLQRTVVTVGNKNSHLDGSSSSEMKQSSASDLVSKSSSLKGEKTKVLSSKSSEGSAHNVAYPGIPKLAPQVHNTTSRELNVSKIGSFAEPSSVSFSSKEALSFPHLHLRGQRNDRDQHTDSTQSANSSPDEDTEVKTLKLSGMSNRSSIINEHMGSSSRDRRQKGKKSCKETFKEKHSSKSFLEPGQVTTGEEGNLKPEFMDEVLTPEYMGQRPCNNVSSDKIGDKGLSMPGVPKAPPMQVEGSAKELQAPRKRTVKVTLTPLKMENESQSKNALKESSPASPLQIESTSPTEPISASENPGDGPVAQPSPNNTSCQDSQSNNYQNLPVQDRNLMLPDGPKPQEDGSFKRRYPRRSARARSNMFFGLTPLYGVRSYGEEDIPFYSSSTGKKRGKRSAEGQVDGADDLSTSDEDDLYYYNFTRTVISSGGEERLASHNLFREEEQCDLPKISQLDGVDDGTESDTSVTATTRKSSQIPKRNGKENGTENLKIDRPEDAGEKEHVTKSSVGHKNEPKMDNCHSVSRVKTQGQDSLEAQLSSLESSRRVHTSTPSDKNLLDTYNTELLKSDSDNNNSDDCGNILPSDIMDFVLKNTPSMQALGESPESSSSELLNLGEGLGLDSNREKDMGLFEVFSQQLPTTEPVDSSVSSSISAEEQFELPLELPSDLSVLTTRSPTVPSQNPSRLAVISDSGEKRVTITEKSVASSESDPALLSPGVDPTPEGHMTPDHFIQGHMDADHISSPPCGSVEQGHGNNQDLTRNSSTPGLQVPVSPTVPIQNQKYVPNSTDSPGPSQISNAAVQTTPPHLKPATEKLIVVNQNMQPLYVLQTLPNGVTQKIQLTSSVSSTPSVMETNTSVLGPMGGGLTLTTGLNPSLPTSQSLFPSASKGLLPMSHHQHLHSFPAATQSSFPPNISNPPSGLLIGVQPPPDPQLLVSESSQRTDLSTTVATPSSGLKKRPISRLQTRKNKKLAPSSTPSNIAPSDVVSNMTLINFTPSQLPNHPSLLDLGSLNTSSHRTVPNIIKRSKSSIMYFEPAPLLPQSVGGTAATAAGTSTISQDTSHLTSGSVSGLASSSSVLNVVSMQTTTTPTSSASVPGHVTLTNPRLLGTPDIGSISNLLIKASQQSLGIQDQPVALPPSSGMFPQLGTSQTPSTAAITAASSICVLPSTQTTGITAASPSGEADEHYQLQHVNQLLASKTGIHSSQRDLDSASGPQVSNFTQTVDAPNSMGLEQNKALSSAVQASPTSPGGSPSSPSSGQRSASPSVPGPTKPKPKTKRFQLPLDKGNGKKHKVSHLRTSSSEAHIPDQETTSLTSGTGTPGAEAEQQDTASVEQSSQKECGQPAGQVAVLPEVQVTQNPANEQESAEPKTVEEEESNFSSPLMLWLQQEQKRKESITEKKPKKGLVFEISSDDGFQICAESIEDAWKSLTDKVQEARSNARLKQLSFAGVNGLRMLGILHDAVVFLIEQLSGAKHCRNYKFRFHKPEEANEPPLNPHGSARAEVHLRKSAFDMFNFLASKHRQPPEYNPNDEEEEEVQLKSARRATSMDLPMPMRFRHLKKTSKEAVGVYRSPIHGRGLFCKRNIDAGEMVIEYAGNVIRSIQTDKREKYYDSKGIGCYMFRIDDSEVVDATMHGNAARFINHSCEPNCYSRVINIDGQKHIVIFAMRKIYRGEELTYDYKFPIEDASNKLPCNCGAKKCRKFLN
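Fluorescence polarization: 7 uM MLL-CXXC (stock) preincubated 5 min with compounds, then 50 nM fluorescein-HOX-A9 DNA (stock) added; 30 min ambient. Buffer 50 mM Tris-HCl pH 7.5, 50 mM NaCl, 1 mM DTT, 0.05% BSA.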
uPA generation = qHTS for Inhibitors of Cell Surface uPA Generation. cell surface uPA generation assay, qHTS. Potency, µM (series often up to 38.3 µM), without a hit: at the highest dose activity change, negative = inhibition, usual class: inhibitors. AID 540303, 2011. actives 0.31% (n = 330,000); active = well fitted inhibition curve with a large enough effect; inconclusive = small, poorly fitted or top-dose-only effect; inactive = no such curve, though single readings can be large or run the other way; tested in mouse RAW 264.7 cells; also: % is scaled to controls: 0 for no effect and ±100 for the full control effect; nearly all actives have a fitted effect of over 55% in size
MBNL1 CUG block = qHTS Assay for Inhibitors of MBNL1-poly(CUG) RNA binding. actives 0.036% (n = 280,000). TR-FRET MBNL1-His/biotin-(CUG)12 binding, 665/545 ratio. Muscleblind-like protein 1 (Homo sapiens), Q9NR56. Potency, µM (titrated, usually from 57.5 µM), for inactives: at the highest dose activity change, negative = inhibition, usual class: inhibitors; active = well fitted inhibition curve with a large enough effect in the signal ratio, with a control signal flat, not every such curve was filed as active; inconclusive = small, poorly fitted or top-dose-only effect, or effect the other way, or a change in a side signal; inactive = no such curve, though single readings can be large or run the other way; the % refers to the signal ratio; also: % is scaled to controls: 0 for no effect and ±100 for the full control effect
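Compound titration spanned 92 nM–58 uM against the MBNL1-His/biotin-(CUG)12 complex. After 60 min at room temperature with 5 nM streptavidin-XL665 and 0.055 ng/ul terbium anti-His, ratiometric 665/545 nm emission (Ex 340 nm) normalized to controls.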
NPC1 prom act = qHTS Assay for NPC1 Promoter Activators; actives 2.4% (n = 320,000); Potency, µM (highest dose often 9.22 µM), without a hit: top-dose activation, hits mostly activators; Huh7 NPC1 promoter luciferase reporter, 24 h; AID 485313, 2010;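 also: % of control where 0% means no effect; nearly all actives have a fitted effect of over 60% in size; reporter is driven by a mutant NPC1 promoter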
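Luminescence read-out of NPC1 promoter-driven luciferase in stably transfected Huh7 cells; compounds delivered in DMSO and left 24 h at 37C, 5% CO2, qHTS titration format.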
* = called active by the depositor; u = inconclusive; x = not tested or not shown; & = joins results of further samples; [ ] = remark or other dose. Unless noted, calls follow the shape of the dose curve; as a rule, active = well fitted activation curve with a large enough effect; inconclusive = small, poorly fitted or top-dose-only effect; inactive = no such curve, though single readings can be large or run the other way. Potency is read from the fitted curve at half-maximal effect.

1: OCC(O)CO
2: CS(=O)(=O)c1ccc([C@@H](O)[C@@H](CF)NC(=O)C(Cl)Cl)cc1
3: COc1c2occc2cc2ccc(=O)oc12
4: C[C@@H](C(=O)O)c1cccc(C(=O)c2ccccc2)c1
5: CC(=O)Oc1c(C)c(C)c2c(c1C)CCC(C)(CCCC(C)CCCC(C)CCCC(C)C)O2 (configuration not stated)
6: O=C(O)C1CCN(S(=O)(=O)/C=C/c2ccccc2)CC1
7: O=C(O)CC(O)C(=O)O (configuration not stated)
8: CCCCC(CC)C(=O)O (configuration not stated)
9: COc1ccccc1-c1noc(-c2ccncc2)n1
10: N[C@H](CO)C(=O)O
assay / compound	1	2	3	4	5	6	7	8	9	10
BRCA1 expr up	x	1.2%	-4.4%	x	21.2%	-3.5%	1.2%	4.9%	u	x
CXXC DNA block	-7.0%	x	3.8%	-1.5%	x	-4.4%	-0.7%&-3.8%	x	-7.7%	-3.3%&-1.6%
uPA generation	x	-1.3%	-7.0%	x	14.0%	8.9%	-0.2%	1.4%	1.2%	x
MBNL1 CUG block	x	x	-0.8%	x	x	-0.7%	7.6%	x	0.3%	x
NPC1 prom act	x	0.1%	-0.4%	x	11.3%	-0.4%	-1.2%	x	28.6%	5.9%[46.1 µM]

A different layout for some results above:
nr	SMILES	BRCA1 expr up	CXXC DNA block	uPA generation	MBNL1 CUG block	NPC1 prom act
1	OCC(O)CO	x	-7.0%	x	x	x
2	CS(=O)(=O)c1ccc([C@@H](O)[C@@H](CF)NC(=O)C(Cl)Cl)cc1	1.2%	x	-1.3%	x	0.1%
3	COc1c2occc2cc2ccc(=O)oc12	-4.4%	3.8%	-7.0%	-0.8%	-0.4%
4	C[C@@H](C(=O)O)c1cccc(C(=O)c2ccccc2)c1	x	-1.5%	x	x	x
5	CC(=O)Oc1c(C)c(C)c2c(c1C)CCC(C)(CCCC(C)CCCC(C)CCCC(C)C)O2 (configuration not stated)	21.2%	x	14.0%	x	11.3%
6	O=C(O)C1CCN(S(=O)(=O)/C=C/c2ccccc2)CC1	-3.5%	-4.4%	8.9%	-0.7%	-0.4%
7	O=C(O)CC(O)C(=O)O (configuration not stated)	1.2%	-0.7%&-3.8%	-0.2%	7.6%	-1.2%
8	CCCCC(CC)C(=O)O (configuration not stated)	4.9%	x	1.4%	x	x
9	COc1ccccc1-c1noc(-c2ccncc2)n1	u	-7.7%	1.2%	0.3%	28.6%
10	N[C@H](CO)C(=O)O	x	-3.3%&-1.6%	x	x	5.9%[46.1 µM]

Some of the compounds tested (hit frequency here may not be typical).
